# Cruzain noTriton: blocks cruzain activity in detergent-free assay; P25779; actives 2.3% (n = 200,000); purified cruzain, Z-FR-AMC fluorescence, no detergent; Potency, µM, inactives show max response, negative = inhibition, most hits filed as inhibitors;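 also: plate controls were enzyme without inhibitor for no effect and buffer without enzyme for full effect; nearly all actives have a fitted effect of over 40% in size; top concentration of the series not given in the record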
# Target sequence (P25779 123-467 limits assumed): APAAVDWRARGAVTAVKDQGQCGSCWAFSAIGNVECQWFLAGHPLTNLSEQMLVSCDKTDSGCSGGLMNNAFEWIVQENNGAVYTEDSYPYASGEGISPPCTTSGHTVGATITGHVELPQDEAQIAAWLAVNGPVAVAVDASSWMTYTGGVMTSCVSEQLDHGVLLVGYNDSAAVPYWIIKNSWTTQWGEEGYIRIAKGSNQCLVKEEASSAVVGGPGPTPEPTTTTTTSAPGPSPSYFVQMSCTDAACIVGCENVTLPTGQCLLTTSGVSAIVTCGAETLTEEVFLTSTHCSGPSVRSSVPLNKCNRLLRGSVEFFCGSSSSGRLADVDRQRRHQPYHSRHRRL
#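 Detergent-free condition (0.00005% Triton X-100) in acetate buffer pH 5.5 with DTT. 1.5 nM enzyme and compound were pre-mixed 15 min, then 2 uM Z-FR-AMC substrate added; reaction progress from fluorescence change between first and third reads (60 s).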
# Cruzain Triton: cruzain (T. cruzi) inhibition with detergent; P25779; purified cruzain, Z-FR-AMC fluorescence, 0.01% Triton; Potency, µM, for the others: max response, negative = inhibition, most hits filed as inhibitors; actives 0.43% (n = 200,000);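 also: plate controls were neutral wells for no effect and buffer without enzyme for full effect; nearly all actives have a fitted effect of over 40% in size; top concentration of the series not given in the record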
#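 Sodium acetate buffer (100 mM, pH 5.5) containing 5 mM DTT and 0.01% Triton X-100 hosted 1.5 nM cruzain and test compound for 15 min at room temperature. Cleavage of 2 uM Z-FR-AMC was then tracked by fluorescence.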
# SARS PLpro yeast: blocks SARS-CoV papain-like protease in a yeast assay; actives 0.19% (n = 330,000); S. cerevisiae expressing SARS-CoV PLpro, growth rescue; control for the full effect not named in the record; Potency, µM (titrated, usually from 32.9 µM), for the others: at the highest dose activity, positive = growth rescue; AID 485353; active means well fitted rising curve with a large enough effect; inconclusive means small, poorly fitted or top-dose-only effect; inactive means no such curve, though single readings can be large or run the other way; also: 0% is about no effect; nearly all actives have a fitted effect of over 55% in size; growth read by luminescence after 48 h
# RE007 growth inh: less growth of the S. pombe RE007 Vpr strain. S. pombe RE007 Vpr strain, BacTiter-Glo ATP luminescence, 24 h; control for the full effect not named in the record. Potency, µM (doses to about 92.2 µM), without a hit: at the highest dose activity change, negative = less growth. actives 0.21% (n = 360,000); active = well fitted falling curve with a large enough effect; inconclusive = small, poorly fitted or top-dose-only effect; inactive = no such curve, though single readings can be large or run the other way;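 also: % is scaled to controls: 0 for no effect and ±100 for the full control effect; nearly all actives have a fitted effect of over 50% in size; the assay follows cell death caused by Vpr and the record does not say whether a fall means rescue or toxicity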
#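 Fission yeast strain RE007, carrying one chromosomally integrated HIV-1 vpr copy, was seeded at OD 0.01 in PMG+AL medium with 23 nL pinned compound. After 24 h at 30 °C and 99% humidity, viability was read by BacTiter-Glo luminescence.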
# NS1 function inh: blocks influenza NS1 protein function | S. cerevisiae slowed by influenza A NS1, growth recovery by OD600 | actives 0.4% (n = 270,000) | Potency, µM (series often up to 46.1 µM), for the others: at the top dose activity, positive = more growth | AID 2326; active means well fitted rising curve with a large enough effect; inconclusive means small, poorly fitted or top-dose-only effect; inactive means no such curve, though single readings can be large or run the other way; also: nearly all actives have a fitted effect of over 50% in size
#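 In this qHTS, NS1 from influenza A is expressed in budding yeast, where it slows growth. Cells are switched from glucose to 2% galactose medium (pH 6.0, -URA), treated with compound, and growth recovery is read at OD600.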
# 2A StopGo: FMDV 2A StopGo reporter, luciferase signal. actives 1.2% (n = 410,000). human cells with a luciferase reporter of 2A StopGo recoding; control for the full effect not named in the record. Potency, µM (doses to about 57.9 µM), without a hit: top-dose signal change, negative = less light. AID 1159524; active = well fitted falling curve with a large enough effect; inconclusive = small, poorly fitted or top-dose-only effect; inactive = no such curve, though single readings can be large or run the other way; tested in HEK293T cells; also: % is scaled to controls: 0 for no effect and ±100 for the full control effect; nearly all actives have a fitted effect of over 45% in size; luciferase light after 4 h
# LASV entry inh: inhibitors of Lassa virus binding or cell entry. Potency, µM (top dose mostly 37.9 µM), for the others: at the highest dose activity change, negative = inhibition, usual class: inhibitors. actives 1.2% (n = 300,000). Lassa virus pseudotype entry inhibition, cell reporter; control for the full effect not named in the record; active means well fitted inhibition curve with a large enough effect; inconclusive means small, poorly fitted or top-dose-only effect, or effect the other way; inactive means flat fitted curve, though single readings scatter; tested in HEK293 cells; also: % is scaled to controls: 0 for no effect and ±100 for the full control effect; nearly all actives have a fitted effect of over 50% in size; luciferase read-out
# MARV entry inh: Marburg virus entry inhibition; actives 1.8% (n = 300,000); AID 540276; Potency, µM (series often up to 37.8 µM), inactives show at the top dose activity change, negative = inhibition, usual class: inhibitors; Marburg virus pseudotyped entry inhibition, cell reporter; control for the full effect not named in the record; about a third of the inactives were read at about 46 µM; active = well fitted inhibition curve with a large enough effect; inconclusive = small, poorly fitted or top-dose-only effect, or effect the other way; inactive = flat fitted curve, though single readings scatter; tested in HEK293 cells; about a fifth of its hits are not listed in these tables; also: % is scaled to controls: 0 for no effect and ±100 for the full control effect; luciferase read-out
# Starred values were filed as active, the others as inactive; ? = inconclusive; . = no result given; [ ] = remark or other dose. Unless noted, calls follow the shape of the dose curve; as a rule, active = well fitted curve in the direction sought with a large enough effect; inconclusive = small, poorly fitted or top-dose-only effect, or another doubt; inactive = no such curve, though single readings can be large; an effect the other way counts as inactive or inconclusive. Potency is read from the fitted curve at half-maximal effect.
SMILES,Cruzain noTriton,Cruzain Triton,SARS PLpro yeast,RE007 growth inh,NS1 function inh,2A StopGo,LASV entry inh,MARV entry inh
O=C(Nc1ccc2c(c1)OCCO2)c1cccnc1,10%,2.6%,1%,-7%,-7%,70%[activator],?,?
Cc1ccc(/C=N/NC(=O)CC(=O)NCc2cccnc2)cc1,-1%,-1.2%,6%,-5%,7%,-13%,6%,?
CCC(=O)Nc1ccnc(-c2cccnc2)n1,10%,-2.5%,2%,-7%,-4%,-17%,8%,?
O=C(c1ccc(F)cc1)N1CCC(c2nc3ccccc3o2)CC1,-12%,-3.7%,.,.,.,-11%,2%[46.1 µM],?
COc1cccc(NC(=O)C2CCN(S(=O)(=O)c3ccc4c(c3)C(C)(C)C(=O)N4C)CC2)c1,.,.,-3%,-18%,-3%,-22%,.,.
Cc1nc2c(c(C)c1CCC(=O)NCc1ccc(F)cc1)c(=O)n(C)c(=O)n2C,11%,0.5%,.,.,.,3%,-3%[46.1 µM],15%[46.1 µM]
COc1ccccc1N1CCN(C(=O)c2cc3c(-c4ccc(Cl)cc4)nn(C)c3s2)CC1,?,0.2%,-4%,1%,-16%,-3%,.,-5%
CCN(C(=O)CN(C)S(=O)(=O)c1ccc2c(c1)c(=O)n(C)c(=O)n2C)c1ccc(OC)cc1,9%,-0.6%,.,.,.,-13%,-7%[46.1 µM],1%[46.1 µM]
O=C(CN1CCC(Cc2ccccc2)CC1)NC(=O)NCc1ccccc1,10%,0.1%,-12%,1%,3%,-7%,-11%,21%
Cc1cc(NS(=O)(=O)c2ccc(NC(=O)c3ccc([N+](=O)[O-])s3)cc2)nc(C)n1,.,.,2%,-1%,.,70%[activator],2%,-20%
COC(=O)CN1C(=O)N/C(=C/c2ccc(OC)c(C)c2OC)C1=O,.,.,-5%,15%,.,3%,-16%,?
CCOC(=O)c1cc(-c2ccccc2)n(CCC(=O)Nc2cc(C)cc(C)c2)c1C,-11%,-3.3%,.,.,.,-23%,-9%[46.1 µM],.
Clc1cccc(Cl)c1CSc1nnc2ccccn12,3%,-0.9%,9%,1%,6%,68%[activator],?,3%
CC(C)CNC(=O)c1cccc(NC(=O)c2ccccc2-c2ccccc2C(=O)O)c1,.,.,-8%,15%,24%,-15%,.,.
Cc1ccc(OC(=O)CSc2nnc(-c3ccc4c(c3)OCO4)o2)c(C)c1,-5%,-4.4%,.,.,.,-16%,0%[46.1 µM],11%[46.1 µM]
CCn1c(SCC(=O)Nc2cc(NC(C)=O)ccc2OC)nnc1-c1cccnc1,-6%,0.8%,0%,0%,-7%,-7%,-8%,19%
COc1cc(OC)c(OC)cc1/C=N/NC(=S)NCC1CCCO1 (stereo not drawn),-9%,-12%,1%,-9%,-10%,?,-24%,-28%
O=C(Nc1ncn[nH]1)c1ccc([N+](=O)[O-])cc1[N+](=O)[O-],-4%,3.5%,-1%,3%,7%,-6%,2%,-4%
Cc1cccc(NC(c2cccc(F)c2)c2ccc3ccc(C)nc3c2O)n1 (stereo not drawn),9%,4.6%,.,.,.,?,?,.
O=[N+]([O-])c1ccc(N2CCN(C(=S)c3cccc([N+](=O)[O-])c3)CC2)cc1,.,.,7%,-2%,?,0%,-2%,5%[46.1 µM]

# Some of the entries so far, with values under each structure:
# Order of values: Cruzain noTriton, Cruzain Triton, SARS PLpro yeast, RE007 growth inh, NS1 function inh, 2A StopGo, LASV entry inh, MARV entry inh
Cc1ccc(/C=N/NC(=O)CC(=O)NCc2cccnc2)cc1
    -1%, -1.2%, 6%, -5%, 7%, -13%, 6%, ?
CCC(=O)Nc1ccnc(-c2cccnc2)n1
    10%, -2.5%, 2%, -7%, -4%, -17%, 8%, ?

# Whole records from above. Order of screens: Cruzain noTriton, Cruzain Triton, SARS PLpro yeast, RE007 growth inh, NS1 function inh, 2A StopGo, LASV entry inh, MARV entry inh
# `O=[N+]([O-])c1ccc(N2CCN(C(=S)c3cccc([N+](=O)[O-])c3)CC2)cc1` is listed as ., ., 7%, -2%, ?, 0%, -2%, 5%[46.1 µM]
# `CCC(=O)Nc1ccnc(-c2cccnc2)n1` is listed as 10%, -2.5%, 2%, -7%, -4%, -17%, 8%, ?
# `O=C(Nc1ncn[nH]1)c1ccc([N+](=O)[O-])cc1[N+](=O)[O-]` is listed as -4%, 3.5%, -1%, 3%, 7%, -6%, 2%, -4%

# (next part)
SMILES,Cruzain noTriton,Cruzain Triton,SARS PLpro yeast,RE007 growth inh,NS1 function inh,2A StopGo,LASV entry inh,MARV entry inh
Cc1ccc(-c2c(NCCc3ccccc3)c(=O)c2=O)cc1,.,.,1%,27%,-3%,-4%,?,10%
Cc1ccc(-n2ncc3c(SCc4ccccc4)ncnc32)cc1,-23%,-1.5%,-5%,21%,-1%,4%,19%,?
CCN(CC)S(=O)(=O)c1ccc(N=Cc2c(O)n(-c3ccccc3)c(=O)[nH]c2=O)cc1,6%,4.9%,0%,9%,-37%,-6%,-1%,14%
CNc1nc(-c2ccccc2)nc(-c2ccccc2)c1C#N,7.9µM*,-2.0%,.,3%,15%,-16%,-13%,-10%
Cc1ccccc1OCC(=O)Nc1ccc2nc(SCC(=O)N3CCOCC3)sc2c1,?,-7.6%,.,.,.,28µM*,7%[46.1 µM],-20%[46.1 µM]
COc1ccc(N2CC(NC(=O)C3CCCC3)CC2=O)cc1 (stereo not drawn),-12%,-1.0%,.,.,.,-5%,-6%[46.1 µM],.
Cc1ccc(/C=N/NC(=O)c2nnn(-c3nonc3N)c2CSc2ccccc2)s1,.,.,-7%,-1%,-3%,15%,?,4%[46.1 µM]
CSc1ccc(/C=C(\NC(=O)c2ccc(C)cc2)C(=O)NN)cc1,.,.,4%,1%,?,-6%,.,.
Cc1ccc(S(=O)(=O)N(C)c2ccc(C(=O)NCc3ccccc3F)cc2)cc1,.,.,1%,-24%,.,-4%,?,?
O=C(c1ccccc1)N1CCN(CC(O)COc2ccc(Br)cc2)CC1 (stereo not drawn),.,.,3%,-15%,?,-14%,.,.
Cc1ccc(C)n1CCN1CCN(C(=O)CC#N)CC1,.,.,1%,-11%,.,3%,.,-16%[46.1 µM]
CN(C)S(=O)(=O)c1ccc(C(=O)OCn2nnc3ccccc3c2=O)cc1,-3%,0.3%,-7%,0%,-10%,-17%,.,.
O=C(Nc1ccc(N2CCCC2)cc1)C(Cl)c1ccccc1 (stereo not drawn),?,1.5%,?,-22%,12%,68%[activator],-8%,?
CN(C)c1ccc(/C=C(\NC(=O)c2ccccc2)C(=O)N/N=C/c2ccc(C(=O)O)cc2)cc1,.,.,-1%,-1%,-6%,-3%,-10%[46.1 µM],9%[46.1 µM]
CN(Cc1cnn(C)c1)C(=O)C1CCC(=O)N(Cc2ccc(Cl)cc2)C1 (stereo not drawn),.,.,-6%,-9%,5%,-15%,-13%,6%
COc1ccc(OC)c(C(C(=O)NC2CCCCC2)N(C(=O)c2ccccn2)c2cccnc2)c1 (stereo not drawn),.,.,-1%,1%,4%,31%[activator],0%,-18%
Cc1ccc(C(=O)Cn2c(C)cc(C)c(C#N)c2=O)cc1,-10%,0.5%,-1%,10%,-7%,-19%,1%,0%[46.1 µM]
Cn1c(Cc2cccs2)nnc1SCC(=O)Nc1ccc(F)cc1F,.,.,4%,-5%,.,-4%,-8%,-16%[46.1 µM]
COc1cc(CC(=O)OCC(=O)Nc2cccc([N+](=O)[O-])c2)cc(OC)c1OC,4%,-2.0%,10%,-12%,-5%,-17%,3%,12%
Cc1c(C(=O)OC2CCCC2)[nH]c2c1C(=O)CC(c1ccco1)C2 (stereo not drawn),-6%,2.1%,2%,-3%,1%,?,.,.
Cc1ccc[n+](CC(=O)Nc2nc3ccccc3s2)c1,.,.,-1%,0%,6%,-6%,6%[46.1 µM],-4%[46.1 µM]
C=CCNC(=O)COc1ccc(S(=O)(=O)NC2CCCCC2)cc1,6%,4.2%,2%,-7%,-4%,.,-17%,-17%
CCCCOC(=O)c1ccc(NC(=S)NC(=O)c2c(Br)c(C)nn2C)cc1,-10%,-0.7%,-10%,1%,9%,-16%,4%,?
Cn1c(CO)cnc1S(=O)(=O)Cc1ccc([N+](=O)[O-])cc1,3%,-4.4%,3%,-2%,4%,-15%,3%,22%
COc1cc(O)c(C(CC(=O)N2CCCC(C)C2)c2cc(OC)c(OC)c(OC)c2)c(OC)c1 (stereo not drawn),.,.,1%,10%,-2%,3%,.,.
COc1ccc2nc(N(Cc3cccnc3)C(=O)c3ccco3)sc2c1,19%,-9.6%,.,.,.,35%[activator],2%[46.1 µM],.
CCOc1ccc(C(=O)Nc2ccc(NC(=O)c3ccccc3)c(C)c2)cc1[N+](=O)[O-],.,.,4%,2%,12%,-14%,0%,23%
COc1ccc(N2CCN(C(=O)c3cn(CC(C)C)c(=O)c4c3c3ccccc3n4C)CC2)cc1,?,-11%,.,.,.,24%,?,13%[46.1 µM]
COc1ccc(CC(=O)Nc2ccc3nc(N4CCCCC4)cc(C)c3c2)cc1,-3%,-8.2%,.,.,.,-6%,6%[46.1 µM],6%[46.1 µM]
COc1ccc(S(=O)(=O)N(C(=O)c2ccco2)c2cc3sc(=O)oc3c3ccccc23)cc1,?,-4.8%,-12%,18%,22%,-7%,?,?
COc1cc(C2C(N3C(=O)c4ccccc4C3=O)C(=O)N2c2cccc(C)c2)cc(OC)c1OC (stereo not drawn),?,-4.0%,-26%,.,18%,.,4%,0%
COc1ccccc1-n1cnnc1SCC(=O)NCc1cccs1,1%,2.1%,2%,-2%,13%,-5%,15%,11%
CSc1ccccc1NC(=O)C1CC(c2ccccc2O)=NO1 (stereo not drawn),-11%,-5.8%,1%,15%,-11%,.,3%,1%
O=C(NCCN1CCCCC1)c1ccco1,-6%,0.7%,14%,4%,5%,-9%,12%,7%
O=C1NC(=S)NC1=Cc1ccc2c(c1)CCC2,.,.,.,4%,.,26%,15%[46.1 µM],?
Cc1cc(C(=O)OCC(=O)Nc2cc(S(=O)(=O)N(C)C)ccc2C)c2ccccc2n1,.,.,1%,-6%,.,16µM*,6%,-17%
COc1ccc(-c2nn(-c3ccccc3)cc2C(=O)N(C)CC(=O)Nc2ccc(N3CCOCC3)cc2)cc1,.,.,4%,6%,.,4%,-13%,22%
